Screening data deposited in PubChem by Johns Hopkins Ion Channel Center.
KCNQ2 inh: KCNQ2 channel blockers in CHO-K1 cells – cell-based, FluxOR thallium flux, B-score, primary screen (AID 2156); hit rate 1.1% among 310,000; 20 min; active compounds read low; only compounds with negative scores are shown here; some inactives read as strong as hits; B-score at 10 µM; O88943;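 active = fluorescence ratio B-score at most minus 3 library SDs, with starting brightness B-score within 2 library SDs, cut at about -5.5 in these data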
Target sequence (O88943 whole entry, looked up): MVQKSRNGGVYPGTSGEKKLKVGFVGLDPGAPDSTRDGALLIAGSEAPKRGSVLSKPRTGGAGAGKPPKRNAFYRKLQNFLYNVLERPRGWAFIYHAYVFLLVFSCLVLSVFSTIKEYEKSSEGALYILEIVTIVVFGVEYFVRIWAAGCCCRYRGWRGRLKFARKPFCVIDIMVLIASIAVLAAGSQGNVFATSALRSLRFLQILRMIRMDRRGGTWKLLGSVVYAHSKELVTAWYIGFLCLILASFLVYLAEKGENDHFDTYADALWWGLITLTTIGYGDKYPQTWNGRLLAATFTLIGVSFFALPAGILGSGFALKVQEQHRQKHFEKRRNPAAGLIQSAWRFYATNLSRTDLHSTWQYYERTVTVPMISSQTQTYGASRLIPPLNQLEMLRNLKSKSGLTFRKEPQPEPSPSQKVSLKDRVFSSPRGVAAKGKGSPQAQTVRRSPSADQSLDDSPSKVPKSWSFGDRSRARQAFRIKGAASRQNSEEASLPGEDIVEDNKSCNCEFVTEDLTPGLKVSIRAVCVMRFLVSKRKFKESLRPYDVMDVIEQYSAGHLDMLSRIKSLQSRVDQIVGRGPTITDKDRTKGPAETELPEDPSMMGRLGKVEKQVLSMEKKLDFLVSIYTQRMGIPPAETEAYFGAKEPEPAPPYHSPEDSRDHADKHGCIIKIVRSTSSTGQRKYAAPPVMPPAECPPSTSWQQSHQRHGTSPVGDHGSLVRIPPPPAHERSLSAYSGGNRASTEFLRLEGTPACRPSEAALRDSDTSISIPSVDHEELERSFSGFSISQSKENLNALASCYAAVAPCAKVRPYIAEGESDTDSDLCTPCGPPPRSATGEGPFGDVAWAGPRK
KCNQ2 inh baseline: recorded beside KCNQ2 inh, whose call it bears; B-score; measured here: initial fluorescence intensity artifact check;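 brightness before thallium and not channel activity; 0 = typical well and far values either way flag optical interference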
The depositor's hits bear a star; i = inactive.

SMILES	KCNQ2 inh	KCNQ2 inh baseline
Cc1onc(-c2ccccc2)c1C(=O)NC(C)c1ccccc1 (configuration not stated)	i	-2.7
CCN(C(=O)COC(=O)c1cc(-c2ccccc2)nc2c1c(C)nn2-c1ccccc1)C1CCS(=O)(=O)C1 (configuration not stated)	i	0.92
Cc1ccc(O)c(-c2cc(C(=O)NCc3ccc4c(c3)OCO4)[nH]n2)c1	i	-0.82
O=C(NCc1ccccn1)c1cccs1	i	1.4
CCN(Cc1ccccc1)c1ccc(/C=N/N2CCOCC2)cc1	i	-0.41
CCn1nc(NC(=O)c2ccncc2)c2cc3ccc(C)cc3nc21	i	1.6
CC1CC(C)CN(CCCNC(=O)c2c(O)nc3ccccn3c2=O)C1 (configuration not stated)	i	0.6
Cc1cc(NC(=O)CSc2nc3ccccc3c(=O)n2CCCC(=O)NCc2ccco2)n[nH]1	i	0.09
CSc1cccc(NC(=O)CCS(=O)(=O)c2cccc3nonc23)c1	i	1.1
CCc1ccc(NC(=O)C(C)OC(=O)c2ccc(-n3cnnn3)cc2)cc1 (configuration not stated)	i	0.05
CC(C)(C)c1ccc(N2C(=O)Cc3c2nc(N)c(C#N)c3N)cc1	i	-2
COC(=O)c1cccc(NC(=S)N2CCN(C)CC2)c1	i	-0.01
CC(=O)Oc1cc2c(C(C)=O)coc2c2ccccc12	i	0.31
Cc1ccc(O)c(C2=NNC(c3ccc(Cl)cc3)C2)c1 (configuration not stated)	i	-0.53
CC(=O)c1ccc(NC(=O)/C(=C\c2ccccc2)NC(=O)c2ccco2)cc1	i	-0.68
CC(C)(O)C(=O)NN(C(=O)c1ccccc1)c1cccc(Br)c1	i	-0.2
CCCCCCSc1ccc([C@H]2N[C@@](CC(C)C)(C(=O)OC)[C@H]3C(=O)N(C)C(=O)[C@@H]23)cc1OC	i	1.9
COc1cc(OC)c(NS(=O)(=O)c2c(C)[nH]c(=O)[nH]c2=O)cc1Cl	i	3.9
O=C(CN1CCN(Cc2ccccc2)CC1)Nc1ccc(-n2cnnn2)cc1	i	-1.3
CC(=O)N1CCN(c2ccccc2NC(=O)Cc2ccc(Cl)cc2)CC1	i	0.09
O=C(Nc1ccc(S(=O)(=O)N2CCCCC2)cc1)C1CC(=O)N(c2ccc(Cl)cc2)C1 (configuration not stated)	i	-0.01
Cc1ccc(C(=O)COC(=O)c2cc(=O)[nH]c3ccccc23)cc1	i	-0.23
Cc1ccc(Cn2c(SCC(=O)NCC3CCCO3)nc3c2c(=O)n(C)c(=O)n3C)cc1 (configuration not stated)	i	2.6
COc1ccccc1CNC(=O)c1ccc(SC)cc1OC	i	-0.98
CCOc1ccccc1OCC(=O)NCc1ccco1	i	0.09

Entries listed so far that have an aryl methoxy group (three):
SMILES	KCNQ2 inh	KCNQ2 inh baseline
CCCCCCSc1ccc([C@H]2N[C@@](CC(C)C)(C(=O)OC)[C@H]3C(=O)N(C)C(=O)[C@@H]23)cc1OC	i	1.9
COc1cc(OC)c(NS(=O)(=O)c2c(C)[nH]c(=O)[nH]c2=O)cc1Cl	i	3.9
COc1ccccc1CNC(=O)c1ccc(SC)cc1OC	i	-0.98

Entries above that have an NH in an aromatic ring (four):
SMILES	KCNQ2 inh	KCNQ2 inh baseline
Cc1ccc(O)c(-c2cc(C(=O)NCc3ccc4c(c3)OCO4)[nH]n2)c1	i	-0.82
Cc1cc(NC(=O)CSc2nc3ccccc3c(=O)n2CCCC(=O)NCc2ccco2)n[nH]1	i	0.09
COc1cc(OC)c(NS(=O)(=O)c2c(C)[nH]c(=O)[nH]c2=O)cc1Cl	i	3.9
Cc1ccc(C(=O)COC(=O)c2cc(=O)[nH]c3ccccc23)cc1	i	-0.23

Next section:
SMILES	KCNQ2 inh	KCNQ2 inh baseline
C=CCNc1nnc(C)c2ccccc12	i	0.49
Cn1c(SCC(=O)O)nc2ccccc2c1=O	i	-0.01
CCCCC1(C)NC(=O)c2c(C)sc(C(=O)OCC)c2N1 (configuration not stated)	i	-0.46
COc1ccc2c(c1)C(=O)Cc1ccccc1O2	i	-0.12
Cc1ccc(S(=O)(=O)NC(C)CCc2ccccc2)cc1C(N)=O (configuration not stated)	i	0.56
O=C(CCS(=O)(=O)Cc1ccccc1)NCC1CCCO1 (configuration not stated)	i	-0.05
Cc1cc(NC(=O)CSc2nc(C)c(C)c(=O)[nH]2)no1	i	-0.23
CCOC(=O)c1nn(-c2ccc(Br)cc2)cc1C(=O)c1cccc2ccccc12	i	1.2
CCN1C(=O)CS/C1=N\S(=O)(=O)c1ccccc1	i	-0.76
CCOC(=O)c1cc2cc([N+](=O)[O-])ccc2oc1=O	i	-0.95
CCN1C(=O)[C@H]2[C@@H](c3ccc(SC4CCCCC4)c(OC)c3)N[C@@](Cc3ccccc3)(C(=O)OC)[C@H]2C1=O	i	-1.4
COCCNC(=O)C1CCCN(S(=O)(=O)c2ccc3c(c2)CC(C)N3C(=O)C2CC2)C1 (configuration not stated)	i	0.54
Cc1ccc(-c2nnn(CC(=O)N3CCCCC3)n2)o1	i	0.24
CCCCn1c(-c2ccccc2C)nc2cc3[nH]c(=O)c(C(C)C)nc3cc21	i	-0.13
COc1cccc(-n2ccnc2SCC(=O)NCc2ccccc2)c1	i	-0.6
CN(C)/C=N/NC(=O)c1ccc(Cl)cc1	i	-1.2
O=C(OCCOc1cccc(Cl)c1)C1CCN(S(=O)(=O)c2ccccc2)CC1	i	0.88
CC(C)(C)NC(=O)NC(=O)CN1C(=O)NC(c2ccccc2)(c2ccccc2)C1=O	i	0.01
O=C(c1ccc(C(F)(F)F)cc1)C1CCCN(C(=O)CCn2cncn2)C1 (configuration not stated)	i	-0.09
CCCCCc1cc(=O)oc2c(C(CCN(CC)CC)c3ccc(N(C)C)cc3)c(OC)cc(OC)c12 (configuration not stated)	i	-0.41
COc1ccc(S(=O)(=O)N2CCC(C(=O)NCCC(=O)Nc3ccc(Cl)cc3)CC2)cc1	i	-0.38
CC1CC(C)CN(c2nc(N(C)c3ccccc3)nc(N)c2[N+](=O)[O-])C1 (configuration not stated)	i	0.38
COC(=O)CSc1nc(C)c2c(n1)CCCC2	i	-0.03
CC(=O)OCC(=O)c1c[nH]c2ccccc12	i	0.91
CCCCn1c(N)c(Sc2ccccc2)c(=O)[nH]c1=O	i	-1.1

(more compounds)
SMILES	KCNQ2 inh	KCNQ2 inh baseline
COCCCn1c(N)c(-c2nc3ccccc3n2C)c2nc3ccccc3nc21	i	0.46
O=c1c(-c2ccc(Cl)cc2)c[nH]n1-c1ccccc1	i	-1.1
Brc1nc(Br)n(Cc2ccccc2)n1	i	0.07
CC(C)CC(=O)Nc1cc(C(F)(F)F)ccc1N1CCOCC1	i	-0.6
Cc1ccnc(NC(=O)c2ccc(C(=O)c3ccccc3)cc2)c1	i	0.97
O=C(O)C1CC(=O)N(c2ccc(F)c(F)c2)C1 (configuration not stated)	i	-1.1
Cc1noc(C)c1CSc1nc2sc(C)c(C)c2c(=O)n1C1CCCC1	i	-1.2
Clc1ccccc1CN1CCSCC1	i	1.5
CCCc1cc2c(=O)c(-c3cscn3)c(C(=O)OCC)oc2cc1O	i	1.4
CN(C)S(=O)(=O)c1ccc(C(=O)Nc2ccccn2)cc1	i	1.1
O=C(Nc1nccs1)c1cncc(Br)c1	i	-1.7
CCCCN(CC)C(=O)Cn1cnc2sc(C)c(S(=O)(=O)N3CCC(C)CC3)c2c1=O	i	1.4
Nc1ccc2c(c1)C(=O)N(CC1CCCO1)C2=O (configuration not stated)	i	1.2
COc1cc(NC(=O)Cc2ccccc2)nc(OC)n1	i	0.96
CCOC(=O)c1c(NC(=O)CN2CCCCC2)sc2c1CCC(C=O)=C2Cl	i	-0.76
CCCN=C(C)c1c(-c2ccccc2)[nH]n(-c2nc3ccccc3s2)c1=O	i	-0.83
CCC1CCCCN1C(=S)Nc1ccc(S(=O)(=O)Nc2ncccn2)cc1 (configuration not stated)	i	1.6
COCCn1c(C)cc(C(=O)CSc2cc(C)c3ccc(OC)cc3n2)c1C	i	0.62
CCOC(=O)N1CCC(NC(=O)c2sc3nc4n(c(=O)c3c2C)CCCC4)CC1	i	1.8
COc1cc(C2C(C(=O)c3ccco3)=C(O)C(=O)N2Cc2ccccc2)ccc1O (configuration not stated)	i	0.11
COC(=O)CCC(=O)N1CCCC(N2CCN(c3ccc(OC)cc3)CC2)C1 (configuration not stated)	i	-0.74
CCOC(=O)N1CCC(c2cc(=O)n3[nH]cc(C(=O)OC)c3n2)CC1	i	-0.09
Cc1cc(C(F)(F)F)n2ncc(-c3ccc(F)cc3)c2n1	i	0.52
COC(=O)c1nnn(CC(=O)Nc2cccc(OC)c2)c1C(=O)OC	i	-2.1
COc1ccccc1S(=O)(=O)Cc1ccc(C(=O)NCc2ccc3c(c2)OCO3)o1	i	0.09

Later entries:
SMILES	KCNQ2 inh	KCNQ2 inh baseline
COc1ccccc1C(=O)NNC1CC(=O)N(c2ccc3c(c2)OCCO3)C1=O (configuration not stated)	i	-0.02
Cc1c(NC(=O)CSc2nnc3c4ccccc4n(CCc4ccccc4)c3n2)c(=O)n(-c2ccccc2)n1C	i	-1.5
O=C(N/N=C/c1ccccn1)c1ccc(NC(=O)c2cccc([N+](=O)[O-])c2)cc1	i	-1.1
CS(=O)(=O)N(CC(=O)Nc1ccccc1Sc1ccccc1)c1ccc(F)cc1	i	-0.96
COc1cc(/C=N/NC(=O)C(=O)N2CCCCCC2)ccc1O	i	-0.18
OC1(CC#CCN2CCCCC2)c2ccccc2-c2ccccc21	i	-0.12
Cc1cccc(OCC(=O)NC2CCCc3ccccc32)c1C (configuration not stated)	i	0.97
CC1(C)CC(=O)C2=C(C1)Nc1nc(SCCN3CCOCC3)[nH]c(=O)c1C2c1cccs1 (configuration not stated)	i	-0.18
Cc1cc2oc(=O)cc(CN3CCCCC3C)c2c(C)c1Cl (configuration not stated)	i	0.47
COc1ccc(S(=O)(=O)n2cnc3cc(C)c(C)cc32)cc1C	i	0.43
CCOC(=O)CSC1=NC(=O)/C(=C/c2ccc(OC)cc2)S1	i	0.16
Cc1cc2oc(C(=O)Nc3ccc(S(N)(=O)=O)cc3)c(C)c2cc1Cl	i	-0.78
CCCSc1nsc(NC(=O)C(c2ccccc2)c2ccccc2)n1	i	-1.8
COc1ccc(NC(=O)c2cc3cc(OC)ccc3oc2=N)cc1	i	-2.2
CC(=O)[C@@H]1[C@@H](C(=O)c2ccccc2)[C@]2(C(=O)Nc3ccccc32)[C@H]2C=Cc3cc(F)ccc3N12	i	-0.64
CCOc1ccc(OCC(=O)N(CCC2=CCCCC2)c2c(N)n(Cc3ccccc3)c(=O)[nH]c2=O)cc1	i	-0.3
Cc1ccc(C2=NN(C(=O)CCl)C(c3ccco3)C2)o1 (configuration not stated)	i	1.7
CCOC(=O)c1nnc(-c2ccccc2)nc1NCc1ccccc1	i	-0.7
CCc1c(C)nc2cc(-c3cc(OC)cc(OC)c3)nn2c1N1CCN(CCN2CCOCC2)CC1	i	-1.6
O=C(Nc1cccc(S(=O)(=O)C(F)F)c1)c1ccc(Cl)c(S(=O)(=O)N2CCOCC2)c1	i	-0.08
COc1ccc(Cc2c(Cl)ncnc2Cl)cc1	i	-0.07
Cc1cccc(/C=C/c2onc(C)c2S(=O)(=O)N2CCC(C(=O)N3CCC(C)CC3)CC2)c1	i	0.04
COc1ccccc1COc1ccc2c(C)c(CC(=O)O)c(=O)oc2c1C	i	-0.83
CC1(C)C(C#N)=C(N)Oc2c1c(=O)oc1ccccc21	i	-0.24
CCc1ccc(-c2nc(CN3CCC(C(=O)NCc4ccco4)CC3)c(C)o2)cc1	i	-2.1

By substructure: the entries above containing a CF3 group
SMILES	KCNQ2 inh	KCNQ2 inh baseline
O=C(c1ccc(C(F)(F)F)cc1)C1CCCN(C(=O)CCn2cncn2)C1 (configuration not stated)	i	-0.09
CC(C)CC(=O)Nc1cc(C(F)(F)F)ccc1N1CCOCC1	i	-0.6
Cc1cc(C(F)(F)F)n2ncc(-c3ccc(F)cc3)c2n1	i	0.52

The results go on:
SMILES	KCNQ2 inh	KCNQ2 inh baseline
CCn1c2ccccc2c2cc(NC(=O)CSc3nnc(-c4ccccc4OC)n3N)ccc21	i	1.6
COc1ccc(-c2oc(NC(=O)CSc3ncn[nH]3)c(C#N)c2-c2ccc(OC)cc2)cc1	i	2
CCN(CC)CCn1c2c(c(SCC(=O)Nc3nc4ccc(C)cc4s3)nc1=O)CCC2	i	-1
O=C1NC(=S)S/C1=C/c1ccc(OC(=O)c2ccco2)cc1	i	2.1
COc1ccc2c(c1)CCC1=C2NC(=S)NC1c1ccc(N(C)C)cc1 (configuration not stated)	i	1.6
Cc1nc(NS(=O)(=O)c2ccccc2)sc1NC(=O)OC(C)C	i	-1.3
CCc1nnc(NC(=O)CCN2C(=O)/C(=C/c3cc(OC)c(OC)c(OC)c3)SC2=S)s1	i	0.91
CCN1CCN(C(=O)C2CCN(S(=O)(=O)c3cc(Cl)ccc3Cl)CC2)CC1	i	0.01
O=C(c1ccccc1)c1cnc2ccc(Cl)cc2c1N1CCOCC1	i	-0.11
Cc1ccc(-n2ncc(C(=O)N3CCN(C(=O)c4ccco4)CC3)c2-n2cccc2)cc1	i	-0.77
Cc1ccc(NC(=O)c2ccc([N+](=O)[O-])cc2)cc1S(=O)(=O)N(C)C	i	0.13
Cc1ccc(C(=O)Nc2ccccc2)cc1S(=O)(=O)Nc1ccc(Cl)cn1	i	-0.36
COc1cccc(/C=N/NC(=O)CCc2c(C)n[nH]c2C)c1	i	-2
Cc1ccnc(N2CCC(C(=O)Nc3cccc(C(F)(F)F)c3)CC2)n1	i	-0.7
O=C(OCC(=O)N1CCN(C(=O)c2ccco2)CC1)c1cc(-c2ccccc2)nc2ccccc12	i	-1.9
Cc1nn(C)c(C)c1S(=O)(=O)N(CC(=O)NC1CCCCCC1)c1ccc(C(C)C)cc1	i	-0.35
CCN1CCCC1CNC(=O)c1cc2c(-c3cccc(OC)c3)nn(C)c2s1 (configuration not stated)	i	-0.88
COc1cccc(/C=C/c2ccc3ccccc3n2)c1OC(C)=O	i	0.8
O=C(NCc1ccccc1)C1=C[C@@H](c2csc3ccccc23)C[C@@H](OCc2ccc(CO)cc2)O1	i	0.61

Only part of the results is shown. The share of hits here may be higher or lower than overall.
